Source: PubChem BioAssay
Ecoli growth: blocks Escherichia coli growth. OD600, 23 h; hits give low values. actives 0.21% (n = 330,000). OD600 absorbance (concentration not given with the values);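 active = OD600 absorbance below the run mean of sample wells minus 3.6 SD, in any replicate, cut at about 0.56 in these data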;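 note: stock transfer was 300 nL into about 60 µL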
AF4-AF9 inh: blocks AF4 peptide binding to human AF9; P42568; AlphaScreen, biotin-AF4 peptide binding to FLAG-AF9; inhibition, % at 10 µM; actives 0.47% (n = 350,000); AID 651704;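 active = every replicate reaching a set inhibition limit, whatever the replicate mean, cut at about 25% in these data; inconclusive = mean inhibition reaches that limit but some replicates miss it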;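 note: 0% = plate neutral control median and 100% = total signal loss; the record names both 10 and 1 µM as test concentration; the first replicate is given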
HNF4A DNA FP: change in binding of human HNF4 alpha to DNA; activity change, % at 10 µM; HNF4a-FITC DNA binding, fluorescence polarization, 1 h; actives 0.3% (n = 360,000); AID 1224865; P41235; in the data active = activity change above about 30%, passing the limit was not always enough;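 note: controls were the assay level and a saturating level of protein; the project sought stronger binding though the title names inhibitors; some compounds called inactive have numbers as strong as hits; positive values seem to mean higher polarization but the record does not say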
Target sequence (P41235 whole entry, looked up): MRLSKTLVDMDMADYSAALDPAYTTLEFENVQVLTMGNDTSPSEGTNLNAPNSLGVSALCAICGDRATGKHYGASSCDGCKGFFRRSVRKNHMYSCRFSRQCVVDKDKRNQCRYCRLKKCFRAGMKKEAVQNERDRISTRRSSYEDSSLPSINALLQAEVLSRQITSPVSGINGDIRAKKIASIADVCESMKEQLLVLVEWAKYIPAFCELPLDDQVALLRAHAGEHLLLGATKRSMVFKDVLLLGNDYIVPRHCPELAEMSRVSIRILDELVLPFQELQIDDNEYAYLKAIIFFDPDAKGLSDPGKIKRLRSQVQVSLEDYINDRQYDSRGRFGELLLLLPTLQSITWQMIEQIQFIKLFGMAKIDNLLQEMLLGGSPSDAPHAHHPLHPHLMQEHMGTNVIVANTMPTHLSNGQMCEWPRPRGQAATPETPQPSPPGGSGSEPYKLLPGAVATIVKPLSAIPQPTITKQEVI
ALR inh: blocks human ALR sulfhydryl oxidase activity | purified ALR, DTT oxidation, H2O2 HRP-luminol luminescence | inhibition, % (test concentration not listed) | actives 3.8% (n = 290,000) | AID 485317;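 active = mean and each replicate at 75% or more; inconclusive = only one of the two met; inactive = neither met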;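 note: stock transfer was 7.5 nL into about 7.5 µL; 0% = neutral wells and 100% = wells with inactivated enzyme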
Target sequence (P55789 whole entry, looked up): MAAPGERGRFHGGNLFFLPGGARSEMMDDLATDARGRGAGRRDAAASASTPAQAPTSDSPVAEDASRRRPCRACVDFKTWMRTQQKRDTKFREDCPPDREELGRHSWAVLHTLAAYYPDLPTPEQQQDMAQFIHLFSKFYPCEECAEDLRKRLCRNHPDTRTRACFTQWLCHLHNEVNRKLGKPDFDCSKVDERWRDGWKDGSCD
Vif TR-FRET: inhibitors of Vif binding to APOBEC3G peptide, primary screen, biochemical, TR-FRET, GST-Vif 1-94, biotin-A3G peptide, dose response retest (AID 1117319); TR-FRET GST-Vif / biotin-A3G peptide binding; higher % means a stronger effect; test concentration not given here; strong numbers were not always called active; inhibition, %, or IC50 in µM where a hit was titrated; actives 0.57% (n = 260,000);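 active = above the screen mean plus three standard deviations and confirmed in dose response; inconclusive = results disagree or hit not tested in dose response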;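 note: Vif residues 1-94 fused to GST binding biotinylated APOBEC3G peptide 110-148; 0% = full assay without inhibitor and 100% = GST in place of GST-Vif; retest series ran down from 100 µM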
FGF22 binding: shifts melting point of recombinant human FGF22. Q9HCT0. recombinant FGF22 thermal shift, SYPRO orange fluorescence; percent of sucrose octasulfate shift, DMSO zero. calls only at 9.99 µM. actives 1.5% (n = 340,000). AID 651658;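 active = melting point raised past a set limit in the mean and every replicate; inconclusive = no clear call; three in four hits are not shown here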
Target sequence (Q9HCT0 whole entry, looked up): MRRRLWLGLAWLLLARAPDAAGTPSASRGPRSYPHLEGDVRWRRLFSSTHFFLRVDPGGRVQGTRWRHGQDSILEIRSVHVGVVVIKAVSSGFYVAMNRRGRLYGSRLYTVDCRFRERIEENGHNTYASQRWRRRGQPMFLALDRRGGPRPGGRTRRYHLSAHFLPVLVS
Ecoli rRNA inh: inhibitors of bacterial rRNA selective over humanized ribosomes. AID 720706. E. coli WT GFP vs humanized-ribosome RFP mutants, fluorescence, 24 h; hits give low values; DMSO median 0, no signal -100. actives 1.6% (n = 350,000). GFP signal change (wild-type ribosome), % (no concentration beside the values);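 active = significant combined selectivity score with lowered wild-type GFP, culture density cut under 30%, mutant RFP and density less affected; inactive = any of these conditions unmet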; note: one replicate is shown; some compounds called inactive have numbers as strong as hits
Ecoli rRNA inh OD600: second read-out of Ecoli rRNA inh, no call of its own (marks repeat the call); OD600 change, %; measured here: OD600 growth;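 optical density of the mix in the first replicate; 0 = DMSO median and -100 = no signal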
Ecoli rRNA inh RFP: also measured in Ecoli rRNA inh; calls as there; RFP signal change, %; measured here: RFP humanized mutant strains;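 first replicate; 0 = DMSO median and -100 = no signal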
Starred values were filed as active, the others as inactive; i = inactive; u = inconclusive; x = no result given. The list is partial (hit frequency here may not be typical).

Ecoli growth | AF4-AF9 inh | HNF4A DNA FP | ALR inh | Vif TR-FRET | FGF22 binding | Ecoli rRNA inh | Ecoli rRNA inh OD600 | SMILES | Ecoli rRNA inh RFP
0.73 | 6.6 | 0.8 | -13 | -2% | i | x | x | CCOc1ccc(S(=O)(=O)n2cc(-c3ccccc3)c(N)n2)cc1 | x
0.69 | -0.9 | -6.2 | 0 | x | i | 12 | 9 | CC(=O)N1CCCc2cc(S(=O)(=O)N3CCCC(C(=O)Nc4cc(C)ccc4C)C3)ccc21 (stereo not drawn) | -0.1
0.68 | x | 2.5 | -5 | -4% | x | x | x | Cn1c2ccccc2c2nn(-c3ccccc3)c(=O)cc21 | x
0.68 | x | -3.0 | -3 | 7% | x | x | x | FC(F)(F)c1ccc(-n2ccnc2)nc1 | x
0.59 | -0.1 | -2.1 | -5 | 9% | i | 17 | 5 | CC12CN3CC(C)(CN(C1)C3c1ccccc1F)C2 (stereo not drawn) | -0.7
x | x | -0.6 | -23 | -1% | x | x | x | COCc1cc(C)nc(OCC(=O)N/N=C\c2cc(C)n(-c3cccc(C(F)(F)F)c3)c2C)c1C#N | x
0.68 | -9.7 | 1.9 | x | -5% | i | -2 | 10 | O=C(CN1C(=O)NC2(CCCCCC2)C1=O)Nc1ccc([N+](=O)[O-])cc1 | 1.1
0.71 | 0.3 | -1.1 | -15 | x | i | -7 | 9 | COc1ccc(N(Cc2cc3cc(OC)ccc3[nH]c2=O)S(=O)(=O)c2ccc(NC(C)=O)cc2)cc1 | -1.4
0.68 | 4.8 | 6.1 | -4 | 0% | i | 10 | 1 | COCCN(C(=O)COC(=O)CCCOc1ccccc1)c1c(N)n(Cc2ccccc2)c(=O)[nH]c1=O | -3.4
0.69 | -3.2 | -0.2 | -4 | 19% | i | 6 | 3 | Cc1ccsc1C(=O)N(C)C1CCS(=O)(=O)C1 (stereo not drawn) | 1.8
0.71 | 0.2 | -0.3 | 4 | 16% | i | 8 | 2 | COc1cccc(N2CCN(C(=O)C3CCN(S(=O)(=O)c4ccc5c(c4)oc(=O)n5C)CC3)CC2)c1 | -0.9
0.65 | x | -2.1 | -3 | 9% | x | x | x | COC(=O)c1ccccc1NC(=O)Oc1ccc(F)cc1 | x
0.66 | 0.2 | 2.5 | 3 | x | i | -2 | 20 | O=C(/C=C/c1ccccc1)Nc1cccnc1 | -1.6
0.66 | 0.5 | -3.6 | -15 | x | i | 8 | 17 | COc1cc([N+](=O)[O-])ccc1N | 7.0
0.67 | x | -0.6 | -3 | 10% | x | -3 | 0 | C=CCOC(=O)C1CC=CCC1C(=O)Oc1ccc(F)cc1F (stereo not drawn) | 0.7
0.66 | -1.7 | -0.3 | 1 | 9% | i | -7 | 4 | Cc1nc(SCc2ccc(Cl)cc2)ncc1C(=O)O | 2.2
0.66 | -3.3 | 5.6 | 3 | 28% | i | 10 | 4 | Cc1ccc(NC(=O)NC(=O)COc2ccc(Cl)cc2Cl)c(C)c1 | -3.1
0.69 | x | -3.2 | 4 | -1% | x | x | x | CCOC(=O)CSc1nnc(CNc2cccc(Cl)c2)n1C | x
0.64 | x | -2.8 | u | x | x | x | x | COCCNc1nc(-c2cc3ccccc3o2)cs1 | x
0.69 | x | -2.2 | 3 | u | x | x | x | CC(C)C(CC(=O)NCc1ccco1)c1ccco1 (stereo not drawn) | x
0.73 | x | 0.6 | -1 | 2% | x | 2 | 11 | Sc1oc(-c2ccccc2)cc1C=Nc1ccccc1 | 2.4
x | -0.2 | x | x | x | i | 5 | 2 | C#CCNC(=O)C[C@H]1C[C@@]2(C(=O)OC)C(=C[C@H](C3CCCC3)O[C@@H]2C)N(CCCCCCCC)C1=O | 5.7
0.7 | -4.1 | -1.0 | 6 | 6% | i | -4 | -6 | C=CCN1C(=O)c2ccc(C(=O)OCC(=O)N3CCN(c4ccccc4)CC3)cc2C1=O | -0.1
0.77 | x | 4.5 | -8 | 33% | x | x | x | CN1C(=O)OC(C)(CCc2ccccc2)C1(C)O (stereo not drawn) | x
x | -1.9 | x | x | x | i | 1 | -6 | COc1ccc(NC(=O)Nc2ccc3c(c2)[C@@H]2C[C@H](CC(=O)O)O[C@@H](CO)[C@@H]2O3)cc1 | 1.4
x | x | 0.4 | 4 | 4% | x | x | x | Cc1ccc(S(=O)(=O)/N=C(\CN2CCOCC2)N2CCCC2)cc1 | x
x | -2.0 | x | x | x | i | 0 | -5 | COc1ccc(NC(=O)N(C)C[C@@H]2Oc3ccc(NC(=O)CCCCCC(=O)Nc4ccccc4N)cc3C(=O)N([C@H](C)CO)C[C@H]2C)cc1 | -0.7
0.69 | -7.3 | 5.2 | -6 | -7% | i | 17 | 10 | CC1CN(C(=S)NC(=O)c2ccco2)CC(C)O1 (stereo not drawn) | 7.0
0.71 | -2.9 | 3.3 | 3 | 2% | i | -1 | 1 | COc1ccc(C(=O)N[C@H](C(=O)NCc2cccs2)C(C)C)cc1 | -2.3
0.71 | -3.1 | -0.1 | -13 | x | i | -15 | -7 | O=C(O)c1ccc(S(=O)(=O)N2CCc3ccccc3C2)cc1 | -4.3
x | -28 | 22 | x | x | i | 1 | 7 | Cc1ccc(Cl)c(OCC(=O)Nc2ccc(S(=O)(=O)NC3=NCCCCC3)cc2)c1 | -1.0
0.66 | 2.7 | -5.7 | 5 | 2% | i | 17 | 5 | CCN(CC)CCNS(=O)(=O)c1ccc2[nH]cc(C(=O)O)c(=O)c2c1 | 3.2
x | -1.2 | x | x | x | i | -2 | -3 | Cc1ccccc1S(=O)(=O)N1C[C@H](O)COC[C@H]2O[C@@H](CC(=O)N3CCOCC3)CC[C@@H]21 | 2.8
x | -1.3 | -4.3 | 3 | 4% | i | -17 | -10 | COc1c(Br)cc(Br)cc1/C=N/NC(=O)c1cccnc1 | 0.0
x | 5.0 | 0.5 | x | x | i | 5 | -6 | Cc1cc(C)c(C(O)c2ncc(-c3ccccc3F)[nH]2)c(C)c1 (stereo not drawn) | 1.6
0.75 | -36 | 0.1 | -2 | 0% | i | 11 | 19 | COC(=O)c1c(-c2ccccc2Cl)noc1-c1cnc(N)nc1C(F)(F)F | -4.8
0.69 | x | -0.5 | 27 | -4% | x | -39 | -60 | Cc1ccc(NC(=S)Nc2ccc(Br)cc2)cc1 | -9.0
0.69 | 1.9 | 0.3 | -5 | -7% | i | 12 | -2 | O=C(CSc1nnc(-c2ccccc2)n1CC1CCCO1)N1CCCC1 (stereo not drawn) | 2.1
0.67 | 2.5 | 0.0 | x | x | i | -4 | -19 | COc1ccc(C(=O)COC(=O)CNC(=O)c2ccc(C)s2)c(OC)c1 | -0.2
x | x | -0.7 | 21 | 19% | x | x | x | N#C/C(=C\c1ccc(Cl)cc1Cl)c1n[nH]c(Cn2cncn2)n1 | x
0.71 | -1.2 | 0.4 | -3 | x | i | 5 | 14 | CC(CNC(=O)Cn1ccc(N)nc1=O)c1ccccc1 (stereo not drawn) | -12
0.69 | 2.9 | 2.0 | -1 | -5% | i | 13 | -3 | COc1cc2c(cc1OC)C(c1ccccc1)NCC2 (stereo not drawn) | 0.7
0.72 | x | 0.7 | -1 | -3% | x | x | x | Nc1nc(OCC(F)(F)F)cc(Oc2ccccc2F)n1 | x
0.69 | -3.9 | 5.7 | x | x | i | -6 | -28 | CCOc1ccccc1NC(=O)C1CCCCN1S(=O)(=O)c1ccccc1 (stereo not drawn) | -3.3
0.71 | -39 | 3.0 | -4 | -3% | i | -5 | 2 | CC(=O)Nc1ccc(-n2nnnc2SCC(=O)Nc2cccc(NC(=O)c3ccco3)c2)cc1 | -1.5
0.72 | -3.6 | 3.6 | 2 | x | i | 5 | 11 | CCC(=O)Nn1c(C2CCC2)nc2ccccc2c1=O | -3.3
0.7 | 0.0 | 4.4 | -8 | 3% | i | 10 | 12 | OCC1(Cc2ccccc2)CCCN(C2CCCC2)C1 (stereo not drawn) | 1.2
0.65 | -1.1 | 2.6 | x | 2% | i | 3 | -2 | O=C1CCN(Cc2ccc(Cl)cc2Cl)C(=O)N1 | 0.0

Fetched one by one from the list above (4):
Ecoli growth | AF4-AF9 inh | HNF4A DNA FP | ALR inh | Vif TR-FRET | FGF22 binding | Ecoli rRNA inh | Ecoli rRNA inh OD600 | SMILES | Ecoli rRNA inh RFP
0.69 | -3.9 | 5.7 | x | x | i | -6 | -28 | CCOc1ccccc1NC(=O)C1CCCCN1S(=O)(=O)c1ccccc1 (stereo not drawn) | -3.3
0.7 | 0.0 | 4.4 | -8 | 3% | i | 10 | 12 | OCC1(Cc2ccccc2)CCCN(C2CCCC2)C1 (stereo not drawn) | 1.2
0.69 | x | -0.5 | 27 | -4% | x | -39 | -60 | Cc1ccc(NC(=S)Nc2ccc(Br)cc2)cc1 | -9.0
0.71 | -1.2 | 0.4 | -3 | x | i | 5 | 14 | CC(CNC(=O)Cn1ccc(N)nc1=O)c1ccccc1 (stereo not drawn) | -12

Going on with the list:
Ecoli growth | AF4-AF9 inh | HNF4A DNA FP | ALR inh | Vif TR-FRET | FGF22 binding | Ecoli rRNA inh | Ecoli rRNA inh OD600 | SMILES | Ecoli rRNA inh RFP
x | -3.8 | 0.2 | -50 | x | i | 1 | 1 | CCOC(=O)C[C@H]1c2cc(F)ccc2S(=O)(=O)N1C1CCCC1 | 4.3
0.73 | 2.6 | -2.2 | 53 | x | i | -23* | -18* | Cc1c(C(=O)N2CCN(c3ccccc3)CC2)oc2c1C(=O)CC(C)(C)C2 | 1.1*
0.66 | -6.7 | 2.2 | x | -5% | i | 1 | -11 | CC1(C)Cc2cccc(C(=O)Nc3ccc(F)cc3F)c2O1 | -4.4
0.7 | x | 2.3 | -10 | x | x | x | x | CCc1ccc(C2NC(=S)NC3=C2C(=O)CC(C)(C)C3)cc1 (stereo not drawn) | x
x | 0.4 | x | x | x | i | -3 | -2 | CO[C@@H]1CN(C)C(=O)c2ccc(NC(=O)c3ccc(F)cc3)cc2OC[C@@H](C)N(C(C)=O)C[C@@H]1C | -0.4
x | -9.0 | x | x | x | i | 7 | 11 | Cc1ccc(-c2ccc3c(c2)O[C@H](CN(C)C)[C@H](C)CN([C@@H](C)CO)S3(=O)=O)cc1 | 2.5
0.66 | 1.0 | 2.0 | -1 | x | i | 13 | 21 | COc1ccc(C)cc1NC(=O)CN1C(=O)COc2ccc(S(=O)(=O)N3CCCCC3)cc21 | 0.9
x | -0.3 | -3.0 | x | x | i | -8 | -52 | COCCNc1nc(Nc2ccc(C(=O)OC)cc2)c2sccc2n1 | 13
0.67 | -0.9 | -0.9 | 0 | 8% | i | 3 | 10 | O=C(CCC(=O)Nc1ccccc1Cl)NNC(=O)COc1ccc([N+](=O)[O-])cc1 | -0.8
0.59 | -51 | 1.9 | -1 | 6% | i | 5 | 0 | CCOc1c2ccc(C(=O)NCc3ccc4c(c3)OCO4)cc2nn1CCOC | 0.8
0.74 | 2.8 | 2.0 | 46 | -1% | i | -13 | -23 | COc1cccc(NC(=O)c2ccc(S(=O)(=O)N3CCCCC3)cc2)c1 | -5.9
x | x | 2.1 | 3 | -4% | x | x | x | CCOc1ccc(C2/C(=C(\O)c3ccc(OC)c(OC)c3)C(=O)C(=O)N2c2cc(C)on2)cc1OC (stereo not drawn) | x
